Screens: PubChem, National Center for Advancing Translational Sciences (NCATS)
Rango release inh = prevents RanGTP from dissociating the Rango-importin beta complex. O95149+P62826. Biochemical FRET Rango-importin beta, RanGTP-induced dissociation. Potency, µM (doses to about 46.1 µM), for inactives: at the highest dose activity change, negative = inhibition. hit rate 0.071% among 340,000. AID 540253; active means falling FRET ratio curve, often poorly fitted, with flat reads before Ran was added; inconclusive means other falling curves, or compound fluorescence or quenching; inactive means flat or rising ratio curve;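 also: potency is read from the fitted curve at half-maximal effect; % of control where 0% means no effect; nearly all actives have a fitted effect of over 45% in size; -100% = wells without RanGTP and RCC1; the record marks most hits as doubtful in a second field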
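Rango (0.1 uM)–importin beta (0.25 uM) complex; RanGTP-RCC1 trigger; 45 min RT; CFP/YFP FRET read.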
Rango-impB inh = prevents formation of the Rango-importin beta complex; Q14974; Rango CFP/YFP FRET sensor + importin beta, 45 min; Potency, µM (series often up to 92.2 µM), without a hit: at the highest dose inhibition of complex formation; hit rate 0.031% among 340,000; AID 540263; active = rising FRET ratio curve, often small or poorly fitted; inconclusive = mostly compound fluorescence or quenching in the first reads; inactive = flat curves in all reads;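 also: potency is read from the fitted curve at half-maximal effect; 0% = DMSO wells and 100% = buffer wells lacking importin beta; nearly all actives have a fitted effect of over 15% in size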
Target sequence (Q14974 whole entry, looked up): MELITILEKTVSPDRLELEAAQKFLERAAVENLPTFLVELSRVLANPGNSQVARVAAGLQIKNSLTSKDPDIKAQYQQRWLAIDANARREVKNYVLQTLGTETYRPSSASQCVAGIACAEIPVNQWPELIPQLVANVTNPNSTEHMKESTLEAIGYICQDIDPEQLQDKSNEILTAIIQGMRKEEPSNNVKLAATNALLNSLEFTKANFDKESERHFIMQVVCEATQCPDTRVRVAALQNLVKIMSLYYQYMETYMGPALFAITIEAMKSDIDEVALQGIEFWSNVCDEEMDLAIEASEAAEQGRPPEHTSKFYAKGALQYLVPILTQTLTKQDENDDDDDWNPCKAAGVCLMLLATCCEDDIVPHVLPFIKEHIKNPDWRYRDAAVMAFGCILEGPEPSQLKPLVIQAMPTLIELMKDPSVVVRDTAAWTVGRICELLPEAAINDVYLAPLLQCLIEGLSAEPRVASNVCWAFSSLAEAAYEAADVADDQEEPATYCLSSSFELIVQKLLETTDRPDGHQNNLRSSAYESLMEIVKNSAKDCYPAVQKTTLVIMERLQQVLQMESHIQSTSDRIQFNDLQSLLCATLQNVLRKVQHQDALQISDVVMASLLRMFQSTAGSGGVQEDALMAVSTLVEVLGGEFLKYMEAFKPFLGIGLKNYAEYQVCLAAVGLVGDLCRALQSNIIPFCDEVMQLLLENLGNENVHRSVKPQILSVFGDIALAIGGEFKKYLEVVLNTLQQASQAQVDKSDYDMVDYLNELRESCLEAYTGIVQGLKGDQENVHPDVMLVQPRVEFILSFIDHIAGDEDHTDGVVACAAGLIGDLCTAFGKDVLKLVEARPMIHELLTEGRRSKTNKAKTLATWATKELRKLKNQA
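FRET biosensor (snurportin 1 IBB flanked by EYFP and cerulean), 50 nM, with compound 5 min, then 0.125 microM importin beta in PBS, 1 mM DTT, 0.02% Tween-20, 0.1% BSA. CFP/YFP ratio read after 45 min at room temperature; pre-read flags interference.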
GLA inh pH 4.5 = alpha-galactosidase A (human) inhibition, pH 4.5; activity change, negative = inhibition, % at 105 µM; 230,000 tested, under 10 active; purified enzyme, 4-MU-alpha-Gal fluorescence, pH 4.5; P06280; inconclusive = small, poorly fitted or top-dose-only inhibition, or a rising curve; inactive = flat fitted curve, though single readings scatter; no compound was filed as active;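 also: 0% = full activity with enzyme and -100% = basal without enzyme; dose as in the result columns while the protocol names 77 µM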
miR-21 FLuc = raises the signal of a miR-21 reporter; 340,000 tested, under 10 active; AID 2288; HeLa miR-21 FLuc reporter, luciferase, 48 h; Potency, µM (doses to about 38.3 µM), for the others: at the highest dose reporter change, positive = more light; active = well fitted rising curve with a large enough effect; inconclusive = small, poorly fitted or top-dose-only effect; inactive = no such curve, though single readings can be large or run the other way;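 also: % of control where 0% means no effect; miR-21 action dims this reporter so a rising signal means less miR-21 action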
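HeLa cells stably expressing CMV-driven firefly luciferase with a downstream miR-21 binding sequence, endogenously expressing miR-21, were treated with titrations (up to about 40uM final) for 48 hours at 37 degree Celsius. Luciferase luminescence was read after lysis.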
* = called active by the depositor; ? = inconclusive; · = not tested or not shown; [ ] = another dose, or the depositor's remark. Some of the compounds tested. The share of hits here may be higher or lower than overall.

1: Cc1ccc(-n2ncc(C(=O)NC3CC3)c2C2CCN(C(=O)OC(C)(C)C)CC2)cc1
2: COc1cccc(CN2C(=O)NC3(CCCCCC3)C2=O)c1
3: CC(C)OCCCNC(=O)C1CC(=O)N(C2CCCCCCC2)C1 (centres undefined)
4: COc1cc2[nH]c(=O)n(CCC(=O)NCc3cccnc3)c(=O)c2cc1OC
5: O=C(NCc1ccco1)c1cc(-c2ccc(F)cc2)on1
6: O=C(CSc1nc2cc(Cl)ccc2o1)NCCc1ccccc1
7: CC(=O)c1ccc(OCC(O)CN2CCN(Cc3ccccc3)CC2)cc1 (centres undefined)
8: CC1CCCCN1S(=O)(=O)c1cn(C)c(=O)n(C)c1=O (centres undefined)
Compound | 1 | 2 | 3 | 4 | 5 | 6 | 7 | 8
Rango-impB inh | -0.7% | 3.6% | -0.5% | 0.4% | 7.3% | 3.5% | -4.7% | -0.5%
miR-21 FLuc | 1% | -5% | -1% | 0% | -51% | -2% | -2% | 1%
Rango release inh | -11% | -1% | 2% | -8% | -12% | -4% | 16% | 2%
GLA inh pH 4.5 | · | · | 6 | -2 | 7 | -5 | -1 | 6

Another view of 2 compounds above:
Values run as follows: Rango-impB inh	miR-21 FLuc	Rango release inh	GLA inh pH 4.5
(7) CC(=O)c1ccc(OCC(O)CN2CCN(Cc3ccccc3)CC2)cc1 (centres undefined)
→ -4.7%	-2%	16%	-1
(8) CC1CCCCN1S(=O)(=O)c1cn(C)c(=O)n(C)c1=O (centres undefined)
→ -0.5%	1%	2%	6

Later entries
9: Cc1ccccc1-c1nc2c(s1)CCc1onc(-c3cccc([N+](=O)[O-])c3)c1-2
10: O=C(Cc1cccc2ccccc12)N1CCN(c2ncccn2)CC1
11: O=[N+]([O-])c1ccc(-c2csc(N/N=C/c3cccnc3)n2)cc1
12: O=S(=O)(c1ccc(NC(=S)Nc2ccc3c(c2)OCO3)cc1)N1CCOCC1
13: O=C(NC(C(=O)c1ccccc1)N1CCOCC1)c1cccs1 (centres undefined)
14: Cc1ccc(-c2noc(COC(=O)c3ccco3)n2)cc1
15: C/C(=N/NC(=O)CNC(=O)c1cccnc1)c1ccco1
16: CCc1nc(CNC(=O)c2cc(OC)c(OC)c(OC)c2)no1
Compound | 9 | 10 | 11 | 12 | 13 | 14 | 15 | 16
Rango-impB inh | -3.2% | 0.1% | -0.6% | -3.7% | 0.0% | -1.5% | -0.7% | 0.3%
miR-21 FLuc | · | -7% | 3% | -38% | -29% | · | 0% | 2%
Rango release inh | 0% | 3% | 6% | -11% | -6% | 6% | 13% | 13%
GLA inh pH 4.5 | · | 6 | 3 | -4 | -5 | · | -5 | -15

17: COc1ccc(C(=O)O)cc1S(=O)(=O)NCCCN1CCCC1=O
18: CCOC(=O)/C=C1\SCC(=O)N1CC(=O)NCCc1ccc(F)cc1
19: N#Cc1cc2c(nc1SCc1cccc(Cl)c1)CCCCC2
20: O=C1C(Cl)=C(N2CCN(Cc3ccccc3)CC2)C(=O)N1Cc1ccccc1
21: Brc1ccccc1/C=N/Nc1ccccn1
22: COc1cc2[nH]c(=O)c(C(=O)NCc3ccc(F)cc3)c(O)c2cc1OC
23: O=C(Nc1ccc(Cl)cc1C(=O)NCCN1CCOCC1)c1ccco1
24: CCn1nccc1C(=O)Nc1ccc(Cl)cc1Cl
Compound | 17 | 18 | 19 | 20 | 21 | 22 | 23 | 24
Rango-impB inh | 0.5% | 0.0% | 0.4% | ? | 5.9% | -3.0% | -4.1% | -3.1%
miR-21 FLuc | -4% | 0% | -7% | 4% | -41% | -6% | 9% | -33%
Rango release inh | 10% | -10% | -5% | -16% | 1% | -3% | 9% | 2%
GLA inh pH 4.5 | -28 | 4[21.1 µM] | 2 | -2 | ? | · | 6 | -6

25: C[C@@H]1CN([C@@H](C)CO)C(=O)c2cccc(NS(C)(=O)=O)c2O[C@H]1CN(C)C(=O)Nc1ccc(F)cc1
26: CCCCCCC[C@@H](C/C=C/CCC(=O)N(C)C/C(=C/Cl)C/C(=C\C(=O)N1C[C@H](O)CC1=O)OC)OC
27: CCN(CC(=O)Nc1c(F)cccc1F)C(=O)CNC(=O)c1ccc(C)s1
28: O=C1CC(c2ccco2)c2ccc3ccccc3c2N1 (centres undefined)
29: COc1ccc(CN(C)C(=O)c2ccncc2)c(OC)c1
30: O=C(NN1C(=O)C2C3C=CC(C4CC34)C2C1=O)c1ccc(Br)cc1 (centres undefined)
31: CC(=O)c1ccc(NC(=O)Nc2ccncc2)cc1
32: Cc1ccc(Cn2c(CCNc3nc(-c4ccc(C)cc4)cs3)nc3cc(C(=O)NCCCO)ccc32)cc1
Compound | 25 | 26 | 27 | 28 | 29 | 30 | 31 | 32
Rango-impB inh | 2.3% | 5.4% | 0.5% | -2.8% | -4.0% | -1.2% | -0.4% | 0.0%
miR-21 FLuc | · | · | -23% | -12% | 0% | -2% | -24% | ·
Rango release inh | -1% | 6% | 5% | 0% | -1% | 1% | 16% | 1%
GLA inh pH 4.5 | · | · | · | -5 | · | 7 | -1 | ·

33: CC(C)c1ccc(NC(=S)Nc2ccc3cn[nH]c3c2)cc1
34: CC(=O)OC1CCC2(C)C(COc3ccc4ccc(=O)oc4c3)C(C)(O)CCC2C1(C)C (centres undefined)
35: CCOC(=O)c1cccc(NC(=O)C(NS(=O)(=O)c2ccc3c(c2)CCN3C(C)=O)C(C)C)c1 (centres undefined)
36: CN(C)C(CNC(=O)c1ccccc1C(F)(F)F)c1ccco1 (centres undefined)
37: Cc1cc(C)cc(NC(=O)CN2CCC(NC(=O)c3ccccc3F)CC2)c1
38: O=C(CCN1C(=O)COc2ccccc21)NCc1cccnc1
39: CCOC(=O)CCCNC(=O)CSc1nnc(-c2ccccc2)c(-c2ccccc2)n1
40: N#C/C(=C(/O)COc1ccccc1)c1nnc2n1CCCCC2
Compound | 33 | 34 | 35 | 36 | 37 | 38 | 39 | 40
Rango-impB inh | -0.8% | ? | 4.6% | -1.4% | -2.7% | -0.8% | 0.8% | -0.2%
miR-21 FLuc | -22% | 0% | -4% | -4% | 2% | -6% | 6% | 0%
Rango release inh | 4% | -2% | 9% | 2% | -12% | -1% | 0% | 1%
GLA inh pH 4.5 | -3 | -2 | -3 | · | · | -6 | · | 3

41: CCOc1ccc(/C(O)=C2/C(=O)C(=O)N(CCCN3CCOCC3)C2c2ccc(F)cc2)cc1C (centres undefined)
42: COc1ccc(NC(=O)C2CCN(S(=O)(=O)c3ccccc3)CC2)cc1
43: Nc1ccc(C(=O)N2CCN(S(=O)(=O)c3ccc4c(c3)OCCO4)CC2)cc1[N+](=O)[O-]
44: C=CCOC(=O)/C(=C/c1cccc2ccccc12)NC(=O)c1ccccc1
45: CC(Sc1ncccn1)C(=O)NNC(=O)c1cccc(Cl)c1 (centres undefined)
46: O=C(/C=C1\NC2(CCCC2)Cc2ccccc21)C(=O)N/N=C/c1ccccc1O
47: CC(=O)N/C(=C\c1ccc(F)cc1)C(=O)OC(C)C
48: CCCc1ccc(OCC(O)CN2CCN(C(=O)OCC)CC2)cc1 (centres undefined)
Compound | 41 | 42 | 43 | 44 | 45 | 46 | 47 | 48
Rango-impB inh | -1.7% | -1.8% | 2.2% | -0.2% | -4.0% | ? | 2.3% | -1.0%
miR-21 FLuc | -3% | 4% | 3% | -41% | · | 27% | 0% | -4%
Rango release inh | -1% | 8% | 7% | 6% | -9% | -15% | -9% | 1%
GLA inh pH 4.5 | · | · | · | -14 | · | 7 | 4 | ·

49: CSc1ccc(CCNC(=O)CSc2ccsc2[N+](=O)[O-])cc1
50: COc1ccc(C/C(C)=N/NC(=S)Nc2ccc(C)c(C)c2)cc1
51: O=C1NCC(=O)N2C(c3ccccc3)c3[nH]c4ccccc4c3C[C@@H]12 (some centres undefined)
52: Cc1ccc(S(=O)(=O)N(CC2CO2)c2cccc([N+](=O)[O-])c2)cc1 (centres undefined)
53: CCN(Cc1ccncc1)Cc1nc(CC2CC2)no1
54: Cc1cnc(SCc2cnc(C)nc2N)nc1
55: Fc1ccc(COc2cccc(-c3n[nH]c(=S)o3)c2)cc1
56: CCOC(=O)CN1N=C(/C=C/c2ccc(C(C)C)cc2)CCC1=O
Compound | 49 | 50 | 51 | 52 | 53 | 54 | 55 | 56
Rango-impB inh | -0.1% | 1.1% | 2.5% | -1.3% | -0.5% | -4.1% | 1.3% | 2.1%
miR-21 FLuc | 0% | 2% | 0% | 12% | 0% | 0% | -11% | -55%
Rango release inh | 8% | 0% | -13% | -12% | 0% | -8% | 4% | -5%
GLA inh pH 4.5 | -6 | 5 | · | · | 4 | 10 | 4 | -7

In a second layout: entries from further up.
nr	Structure	Rango-impB inh	miR-21 FLuc	Rango release inh	GLA inh pH 4.5
30	O=C(NN1C(=O)C2C3C=CC(C4CC34)C2C1=O)c1ccc(Br)cc1 (centres undefined)	-1.2%	-2%	1%	7
9	Cc1ccccc1-c1nc2c(s1)CCc1onc(-c3cccc([N+](=O)[O-])c3)c1-2	-3.2%	·	0%	·
24	CCn1nccc1C(=O)Nc1ccc(Cl)cc1Cl	-3.1%	-33%	2%	-6
54	Cc1cnc(SCc2cnc(C)nc2N)nc1	-4.1%	0%	-8%	10
48	CCCc1ccc(OCC(O)CN2CCN(C(=O)OCC)CC2)cc1 (centres undefined)	-1.0%	-4%	1%	·

Next part
57: CC(C)C(=O)Nc1cc(-c2nc3ncccc3o2)ccc1Cl
58: O=C(Nc1ccc(S(=O)(=O)N2CCCC2)cc1)c1cncc(Br)c1
59: COc1ccc(C(=O)Nn2c(SCC(=O)NCc3ccccc3)nc3ccccc3c2=O)cc1
60: CCOc1ccc(OCC)c(S(=O)(=O)NCCCN2CCOCC2)c1
61: Cn1ncc2c(Nc3ccc(Br)cc3)nc(Nc3ccc(Br)cc3)nc21
62: CCOc1ccc(Nc2ccnc3cc(Cl)ccc23)cc1
63: O=C(Nc1ccc(Cl)cc1)Nc1ccc(-c2cnco2)cc1
64: CCOc1ncccc1C(=O)NNC(=O)c1cccc(S(=O)(=O)Nc2ccccc2OC)c1
Compound | 57 | 58 | 59 | 60 | 61 | 62 | 63 | 64
Rango-impB inh | 0.1% | ? | -1.5% | -2.0% | 0.3% | -1.2% | 0.5% | -0.4%
miR-21 FLuc | -10% | · | 24% | -42% | 17% | -6% | -25% | ·
Rango release inh | -7% | -19% | 26% | 2% | 0% | 22% | 0% | -17%
GLA inh pH 4.5 | · | · | 5 | 0 | -5 | -7 | · | ·

65: COc1ccsc1C(=O)N1CCN(Cc2ccc3c(c2)OCO3)CC1
66: CCN(CC)CCNC(=O)c1cc2c(=O)n(C)c3ccccc3c2s1
67: CCOCCCNC(=O)c1cc(Sc2ccc(C)cc2)nc2ccccc12
68: S=C(NCc1ccccc1)Nc1ccncc1
69: Cc1cc2c(ncn2Cc2ccccc2)c(NS(C)(=O)=O)c1C
70: CN1CCN(C(=O)/C=C/c2cccc(Cl)c2)CC1
71: COCCn1c(SCC(=O)N2CC(=O)Nc3ccccc32)nc2ccccc21
72: CC(NC(=O)OC(C)(C)C)C(=O)Oc1ccc2ccc(=O)oc2c1 (centres undefined)
73: C/C(=N/NC(=O)c1sc(NS(=O)(=O)c2ccccc2)nc1C)c1ccccc1
74: FC(F)(F)c1ccc(Sc2n[nH]c(C(F)(F)F)n2)nc1
Compound | 65 | 66 | 67 | 68 | 69 | 70 | 71 | 72 | 73 | 74
Rango-impB inh | ? | -3.7% | 0.7% | -0.4% | 1.7% | 1.6% | -2.0% | ? | -0.4% | -3.0%
miR-21 FLuc | -4% | -27% | 6% | 16% | 0% | -18% | -1% | 0% | -3% | -1%
Rango release inh | -12% | 10% | 12% | 6% | 1% | 25% | -7% | ? | -1% | 3%
GLA inh pH 4.5 | 1 | · | -14 | · | -2 | · | 3 | ? | 4 | -3
